UUG fidelity – yeast start codon fidelity modulation | AID 602363 | S. cerevisiae UUG-firefly luciferase reporter, luminescence/redox ratio | activity score, % at 18.7 µM | hit rate 0.13% among 350,000;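 active = replicate mean at a twofold rise or more, about +100% in these data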;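 also: firefly luciferase made from a UUG start codon reports start codon fidelity; reporter light over untreated wells divided by growth signal over untreated wells; some hits fall short of that in this replicate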
PABP polyA inh – blocks human PABP binding to poly(A) RNA; fluorescence polarization; P11940; hit rate 1% among 290,000; inhibition, % at 35 µM;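 active = 50% or more with normal probe brightness, or confirmed in later tests; about a fifth of its hits are not listed in these tables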;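 also: calls also rest on retests at 20 µM and on dose response follow-up; controls were probe without protein and protein plus probe with vehicle; some compounds called inactive have numbers as strong as hits; many hits fall short of the cut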
Target sequence (P11940 whole entry, looked up): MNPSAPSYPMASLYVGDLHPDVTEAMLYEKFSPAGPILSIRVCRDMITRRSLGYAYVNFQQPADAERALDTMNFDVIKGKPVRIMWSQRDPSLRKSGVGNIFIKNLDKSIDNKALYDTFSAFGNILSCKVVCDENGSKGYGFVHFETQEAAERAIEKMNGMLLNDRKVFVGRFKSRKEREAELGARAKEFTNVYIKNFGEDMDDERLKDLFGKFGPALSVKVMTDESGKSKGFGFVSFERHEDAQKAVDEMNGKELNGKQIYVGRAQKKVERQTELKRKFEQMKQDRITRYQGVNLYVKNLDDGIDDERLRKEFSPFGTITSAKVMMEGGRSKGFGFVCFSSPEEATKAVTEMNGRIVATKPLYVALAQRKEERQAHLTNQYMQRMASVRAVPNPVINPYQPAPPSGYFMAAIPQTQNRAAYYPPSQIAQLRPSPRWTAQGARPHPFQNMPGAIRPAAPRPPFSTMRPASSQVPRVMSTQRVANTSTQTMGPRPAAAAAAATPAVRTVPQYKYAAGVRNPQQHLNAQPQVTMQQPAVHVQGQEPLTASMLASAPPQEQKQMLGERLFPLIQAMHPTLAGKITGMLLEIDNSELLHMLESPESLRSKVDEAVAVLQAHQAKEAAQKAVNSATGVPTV
HIV Env fusion – HIV envelope-mediated fusion inhibition | HeLa-JRFL Env/CEM21 cell fusion, luciferase | inhibition, % at 12.3 µM | hit rate 1.1% among 360,000 | AID 651610;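 active = mean replicate inhibition score of at least 50 and every replicate individually at or above 50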;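 also: 0% = plate neutral controls and 100% = maraviroc near 300 nM; one replicate is shown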
Rce1 inhib – blocks yeast Ras-converting enzyme; hit rate 0.27% among 290,000; AID 2563; calls only; yeast membranes, quenched prenylated peptide cleavage fluorescence; Q03530;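 active = fall in fluorescence gain of 50% or more versus controls, with final raw signal at or below 3038400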;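 also: plate controls were neutral control wells for no effect and wells lacking membranes for full effect; tested at 10 µM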
Target sequence (Q03530 whole entry, looked up): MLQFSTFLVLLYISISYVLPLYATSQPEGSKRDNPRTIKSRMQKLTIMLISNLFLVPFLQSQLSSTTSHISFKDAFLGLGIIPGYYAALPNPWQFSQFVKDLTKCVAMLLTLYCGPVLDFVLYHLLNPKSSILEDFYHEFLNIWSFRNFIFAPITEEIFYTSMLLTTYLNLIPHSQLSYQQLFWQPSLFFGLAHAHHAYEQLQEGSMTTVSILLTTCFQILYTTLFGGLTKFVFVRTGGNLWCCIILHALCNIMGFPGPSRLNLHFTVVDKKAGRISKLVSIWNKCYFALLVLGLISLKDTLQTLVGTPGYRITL
MT1-MMP act inh – MT1-MMP (human) activation inhibition | GFP/RFP ratio change, % at 20 µM | HT1080 RFP-PRO-GFP cells, GFP/RFP ratio fluorescence, overnight; percent of plate control window, DMSO zero | P50281 | hit rate 0.061% among 360,000;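 active = GFP/RFP ratio change of at least 30% with cell ATP level not reduced by more than half and red fluorescence within 50% of control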; also: strong numbers were not always called active
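Test system: HT1080 cells expressing an RFP-PRO-GFP fluorescent reporter construct / Compound dosing: single-point 20 µM compound, 1% DMSO / Schedule: cells overnight before dosing, compound overnight, 37 °C, 5% CO2 / Evaluation: GFP/RFP fluorescence ratio / Control set: DMSO and RFP-L50D-GFP cell wells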
eIF4H FP inh – inhibitors of RNA binding by human eIF4H. Q15056. eIF4H fluorescence polarization binding assay. inhibition, % at 35 µM. hit rate 0.94% among 290,000. AID 2012;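 active = 50% or more with normal probe brightness, or confirmed in later tests; about a fifth of its hits are not listed in these tables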;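 also: calls also rest on retests at 20 µM and on dose response follow-up; 0% = protein and probe with vehicle and 100% = probe without protein; strong numbers were not always called active; many hits fall short of the cut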
CSC inhib – blocks cancer stem cells. hit rate 1.1% among 300,000. cancer stem cell-like cells viability, luminescence. inhibition, % at 7.5 µM;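 active = mean at 75% or more and at least half the replicates too; tested in HMLE shEcad cells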;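 also: 0% = median of negative and 100% = median of positive control wells; the first replicate is given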
eIF4H FP inh retest – second read-out of eIF4H FP inh, no call of its own (marks repeat the call); inhibition, %; compound at 20 µM; confirmation average;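 mean of two retest wells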
PABP polyA inh retest – further read-out of PABP polyA inh, marked with its call; inhibition, %; compound at 20 µM; confirmation repeats;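 mean of two retest wells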
MT1-MMP act inh RFP – also measured in MT1-MMP act inh; calls as there; RFP signal change, %; measured here: RFP expression control read;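 0 = vehicle wells; hits needed this value within 50% of zero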
Starred values were filed as active, the others as inactive; i = inactive; · = not tested or not shown. Not all compounds are listed. The share of hits here may be higher or lower than overall.

SMILES	UUG fidelity	PABP polyA inh	HIV Env fusion	Rce1 inhib	MT1-MMP act inh	MT1-MMP act inh RFP	eIF4H FP inh	CSC inhib	others
COc1ccccc1NC(=O)N1CCCC1C(=O)NC1CCCCC1 (stereo not drawn)	-1	10	-85	i	2	3	-3	-8
Cc1cc(C)cc(NC(=O)C2C3C=CC4(O3)C2C(=O)N(CCCN2CCCCC2)C4C(=O)NC2CCCCC2)c1 (stereo not drawn)	1	1	0	·	-2	-1	-4	-12
CN(C(=O)C1CCCN(S(=O)(=O)c2cccc([N+](=O)[O-])c2)C1)C1CCS(=O)(=O)C1 (stereo not drawn)	·	-5	0	i	1	2	0	10
COc1ccc(S(=O)(=O)N2CCN(C(=O)/C=C/c3ccco3)CC2)cc1	-6	·	5	·	-6	-1	·	·
COc1cc(NC(=O)Cn2ccsc2=N)c(C)cc1[N+](=O)[O-]	·	-4	-18	i	2	4	-12	-4
COc1ccc(C)c2sc(N(CCCN(C)C)C(=O)c3ccc4c(c3)OCCO4)nc12	1	·	-4	i	-2	-4	·	5
CN(C)CCN(C(=O)c1cccc2ccccc12)c1nc2cc3c(cc2s1)OCO3	1	-11	-2	i	-7	-6	58	8	eIF4H FP inh retest=-20;PABP polyA inh retest=0
CC1CC(c2ccccc2)n2nc(NC(=O)c3ccco3)nc2N1 (stereo not drawn)	-24	-4	-20	i	7	2	0	11
CSc1ncc(CO)n1Cc1ccccc1	·	-4	-1	i	-5	-4	-4	-4
O=C(COC(=O)C12CC3CC(CC(C3)C1)C2)N1CCN(S(=O)(=O)c2ccccc2)CC1	-12	-10	-69	i	2	-2	-4	·
CCOC(=O)c1[nH]ncc1CN1CCN(Cc2ccc(C)cc2)C(CCO)C1 (stereo not drawn)	-2	-1	23	i	9	4	0	19
CCOC(=O)C1CCCN(S(=O)(=O)Cc2ccc(Cl)cc2)C1 (stereo not drawn)	12	-9	-1	i	-2	-1	-11	-8
CCCCOc1ccc(C(=O)N(CC)CC(=O)NCc2cccs2)cc1	6	-1	·	i	2	0	-11	-5
CCONc1ncnc2nonc12	-5	-5	9	·	-3	-1	-8	0
NC(=O)CC1C(=O)N(c2ccc(F)cc2)C(=O)N1NC(=O)CCc1ccccc1 (stereo not drawn)	-10	6	-14	i	3	4	-7	-11
O=C(Cc1ccsc1)N1CCN(S(=O)(=O)c2cc(C(F)(F)F)cc(C(F)(F)F)c2)CC1	-9	5	22	i	-4	-4	6	16
Cc1ccc(S(=O)(=O)N(C)C)cc1NC(=O)C1CCCC1	2	-5	-67	i	6	6	7	-12
O=C(NCCC1CCCCN1S(=O)(=O)c1ccc(Cl)cc1)C(=O)NCc1ccco1 (stereo not drawn)	11	·	3	i	-4	-5	·	9
Cn1c(SCC(=O)C(C)(C)C)nnc1-c1cccnc1	-14	6	20	i	4	6	-3	-17
C=C(C)CNC(=S)N/N=C/c1c(F)cccc1F	·	7	4	i	3	2	7	-14
Cc1ccc(NC(=O)Cn2c(=O)cnc3ccccc32)cc1S(=O)(=O)N(C)C	·	2	5	i	-4	-1	3	-8
N#C/C(=C1/CCCCCN1)c1nc2ccccc2s1	-19	-12	·	i	-14	0	8	7
COCC(=O)n1nc(-c2ccccc2)nc1NCc1ccc(N(C)C)cc1	-6	6	-22	i	4	3	8	6
CCCCOC(=O)Nc1cccc(Cl)c1C	-1	6	-4	i	4	2	12	-1
O=C(NNC(=O)[C@@H]1CCCC[C@@H]1C(=O)O)c1cccs1	5	-4	13	i	1	3	-8	0
Next section
SMILES	UUG fidelity	PABP polyA inh	HIV Env fusion	Rce1 inhib	MT1-MMP act inh	MT1-MMP act inh RFP	eIF4H FP inh	CSC inhib	others
O=C(Nc1ccc2c(c1)OCCO2)c1cccs1	-23	3	-58	i	5	-1	-3	4
COc1ccc(/C=N\Nc2ccccn2)c(OC)c1	-13	-7	-30	i	2	-1	-2	-15
NC(=O)c1ccsc1NC(=O)COC(=O)c1c(F)cccc1Cl	-13	·	·	·	-6	-4	·	1
CC(C)(C)S(=O)(=O)/C(C#N)=C/c1cccn1S(=O)(=O)c1ccccc1	-17	·	-13	·	-1	-1	·	·
CCc1ccccc1N(CC(=O)NCc1ccco1)C(=O)CCC(=O)Nc1nccs1	-10	-5	-19	i	-3	1	-12	-8
CCSc1ccc([C@@H]2[C@H]3C(=O)N(CC)C(=O)[C@H]3[C@]3(C(=O)OC)CCCCN23)cc1	-19	·	-15	i	-9	4	·	-1
O=C(/C=C/c1ccccc1)N1CCN(C(=O)c2ccco2)CC1	14	3	-31	i	-1	0	2	-15
COc1cc(CCN2C(=O)c3cccc4cccc(c34)C2=O)c(S(=O)(=O)NCCCO)cc1OC	-3	-13	-30	i	2	-3	-8	11
Cn1c(=O)[nH]c(=O)c2c1nc(N(CCO)Cc1ccccc1)n2CCCc1ccccc1	33	8	-14	i	-6	-1	2	12
C[C@H](CO)N1C[C@H](C)[C@@H](CN(C)S(=O)(=O)c2ccccc2)Oc2c(NC(=O)Nc3ccc(C(F)(F)F)cc3)cccc2C1=O	-5	·	-27	·	0	-4	·	28
COc1cc(CN2CCCC(N3CCN(c4ccccc4C)CC3)C2)cc(Cl)c1O (stereo not drawn)	6	7	31	i	1	2	4	9
CCCCCC1CC(=O)N(Cc2ccc(Cl)cc2)C(=O)N1 (stereo not drawn)	·	4	·	i	4	-9	3	-6
CCn1c(COc2ccccc2)nnc1SCC(=O)Nc1ccc2c(c1)OCCO2	-13	2	·	i	1	-3	0	-10
Cc1nn(C)c(C)c1CN(C)C(=O)c1nn2c(c1Br)NC(c1cccs1)CC2C(F)(F)F (stereo not drawn)	0	-5	36	i	3	-4	1	-8
Cc1cccc(N=Cc2cc3c(cc2[N+](=O)[O-])OCO3)c1	-14	21*	-23	i	5	-2	62*	14	eIF4H FP inh retest=83*;PABP polyA inh retest=50*
COc1ccc(-c2cc(C(=O)Nc3cnn(Cc4ccccc4C)c3)no2)cc1OC	3	-8	·	i	9	-1	-10	14
CC(C)Nc1nc(NCCOc2ccccc2Cl)c2sccc2n1	-8	·	36	·	-2	-21	·	·
Cc1ccc2c(COC(=O)CNC(=O)c3ccco3)cc(=O)oc2c1C	-9	·	-311	·	-5	3	·	·
CCCCN1CN(S(=O)(=O)c2cccs2)c2nc3ccccc3nc21	·	-1	·	i	·	·	-5	·
CN1CCN(Cc2cccc(Oc3ccc(Cl)cc3)c2)CC1	·	18	·	i	0	-5	3	52
CN(Cc1ccc(Cl)s1)C(=O)CN1C(=O)N(C)C2(CCCCC2)C1=O	-19	·	-372	·	-1	5	·	·
COC(=O)c1c(C)oc2ccc(N(C(=O)Oc3ccccc3)S(=O)(=O)c3ccc(Cl)c([N+](=O)[O-])c3)cc12	-17	-5	·	i	1	-2	21	63
COc1ccc(CNC(=O)COc2ccccc2C(=O)c2cnn(-c3ccccc3)c2)cc1OC	-24	·	-81	·	-4	-4	·	·
Cc1ccc(C(NC(=O)c2ccccc2)C(Cl)(Cl)Cl)cc1 (stereo not drawn)	-18	-4	14	i	-3	-17	1	11
CS(=O)(=O)N1CCN(c2ccc(NC(=O)Cc3ccccc3)cc2)CC1	-21	-4	-5	i	-1	2	-2	18

Taken from the entries so far (three entries):
SMILES	UUG fidelity	PABP polyA inh	HIV Env fusion	Rce1 inhib	MT1-MMP act inh	MT1-MMP act inh RFP	eIF4H FP inh	CSC inhib	others
O=C(Nc1ccc2c(c1)OCCO2)c1cccs1	-23	3	-58	i	5	-1	-3	4
COc1ccc(/C=N\Nc2ccccn2)c(OC)c1	-13	-7	-30	i	2	-1	-2	-15
NC(=O)c1ccsc1NC(=O)COC(=O)c1c(F)cccc1Cl	-13	·	·	·	-6	-4	·	1

Additional entries.
SMILES	UUG fidelity	PABP polyA inh	HIV Env fusion	Rce1 inhib	MT1-MMP act inh	MT1-MMP act inh RFP	eIF4H FP inh	CSC inhib	others
CCN1C(=O)/C(=C/c2ccc(C)s2)SC1=Nc1ccc(OC)cc1	-20	-6	·	i	-2	-6	-4	20
COc1ccc(CN2C(=O)C(CC(=O)NCCCCc3ccccc3)CC(C(=O)N3CCOCC3)=C2C)cc1 (stereo not drawn)	8	·	0	·	3	1	·	·
O=C(N/N=C/c1c[nH]c2ccccc12)c1ccn(Cc2ccc(Cl)cc2)n1	6	3	·	i	-3	-5	9	26
CC(=O)Nc1ccc(-c2csc(NC(=O)C3CC(=O)N(c4ccc5c(c4)OCCO5)C3)n2)cc1 (stereo not drawn)	·	59*	-26	i	5	-2	60*	-13
CN(CC(=O)NCc1ccncc1)S(=O)(=O)c1ccc(Br)cc1	-21	-5	·	i	5	1	-5	5
COc1ccccc1NC(=O)N1CCC(c2nc3cc(C)c(C)cc3[nH]2)CC1	-12	7	35	i	10	-8	4	67
CCCCC(=Nc1ccc(N)cc1)C1=C(O)C(C(=O)OC)C(C)(C)CC1=O (stereo not drawn)	-14	59*	-51	i	20	17	42*	-11	eIF4H FP inh retest=73*;PABP polyA inh retest=67*
Cc1noc(/C=C/N(C)C)c1S(=O)(=O)N1CCN(c2ccc(F)cc2)CC1	-25	-6	-1	i	2	6	-16	3
Cc1[nH]n(-c2cccc(Cl)c2)c(=O)c1-c1ccc(Cl)cc1	-8	5	·	i	-20	-19	-4	-9
COc1ccc(N2C(=O)CC(SCCc3nc4ccccc4[nH]3)C2=O)cc1 (stereo not drawn)	-5	-10	-51	i	0	1	-10	·
COc1ccc(CCN(C(=O)C(F)(F)F)C(C(=O)NC2CCCC2)c2cccs2)cc1OC (stereo not drawn)	2	-8	·	i	0	-1	-2	21
CC(C)(C)c1cc(C(C)(C)C)cc(S(=O)(=O)CCc2ccccn2)c1	3	-18	·	i	-12	-8	-4	-14
O=C(O)C1CCCN(C(=O)/C=C/c2ccccc2)CC1 (stereo not drawn)	-19	·	8	·	-2	4	·	·
CCOC(=O)CNC(=O)c1cc2c(=O)[nH]c3ccc(C)cc3c2s1	-10	-11	1	i	10	4	4	-4
CC(=O)Nc1ccc(NC(=O)Cn2c(=O)n(-c3ccc(F)cc3)c(=O)c3oc4ccccc4c32)cc1	·	-9	2	i	4	-2	4	-8
CCOC(=O)c1sc2nc(N3CCOCC3)c3c(c2c1N)CCCC3	-14	-1	-144	i	-3	2	-15	1
Cc1ccc(C(=O)OCC(=O)NNC(=O)c2ccc([N+](=O)[O-])cc2)o1	-7	·	9	i	0	5	·	·
CC(NC(=O)COc1ccccc1)C(=O)NC1=NCCS1 (stereo not drawn)	-21	-5	·	i	5	1	-6	7
CC1CC(=O)N(C)c2cc([N+](=O)[O-])ccc2N1 (stereo not drawn)	1	-10	-6	i	1	5	6	6
COc1cccc(-c2nnn(CC(=O)N3CCC(C)CC3)n2)c1	4	4	9	i	2	4	-5	-6
Cc1ccc(-c2csc(NC(=O)C3CC=CCC3C(=O)O)c2C(=O)OC(C)C)cc1 (stereo not drawn)	-2	5	·	i	1	4	1	18
CCOc1ccccc1OCCCC(=O)Nc1ccc(Cl)c(S(=O)(=O)N2CCOCC2)c1	-4	·	11	·	3	-15	·	3
CSc1ccc(CNc2ccc(Cl)cc2)cc1	-28	5	·	i	3	0	-5	-13
Cc1ccnc2c1ccc1ccccc12	-14	6	-1	i	-3	0	1	-10
CCC(C)(C)NC(=O)C(c1ccccc1Cl)N(C(=O)CCC(=O)Nc1cc(C)on1)c1ccc(NC(C)=O)cc1 (stereo not drawn)	-8	-1	4	i	-1	0	0	6
Cc1oc2c(c1C(=O)Nc1ccc(C(=O)O)cc1)CCCC2	-18	6	19	i	1	6	-11	-22
CCN1C(=O)N[C@@H](c2cccs2)C(C(=O)OC)=C1C	-8	·	22	i	2	4	·	16
COC(=O)CSc1nc2cc(C)ccc2cc1C#N	-25	1	i	i	-41	4	-5	3
